Screening data (PubChem)
Mtb H37Rv – Mycobacterium tuberculosis H37Rv growth inhibition, cell based, confirmatory dose response (AID 1949); M. tuberculosis H37Rv growth inhibition; most inactive calls were filed without a number and no value below 0 was filed; inhibition, % at 10 µg/mL; hits with a dose series show IC50 in µg/mL; 100,000 tested, 1.6% active;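 active = confirmed in a dose series; inconclusive = about 50% or more but not retested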;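 also: bacteria grown 7 days with compound before Alamar blue readout; 0% = untreated bacteria and 100% = reference antibiotic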
Active calls of the source: *; i = inactive; u = inconclusive.

Molecule,Mtb H37Rv
COc1cc(C(=O)NC(=S)Nc2ccccc2C(=O)O)cc(OC)c1OC,i
CCSc1nc(C)c(C(C)=O)cc1C#N,i
CCOCCOC(=O)C1=C(C)NC2=C(C(=O)CC(C)(C)C2)C1c1cccs1 (stereo unspecified),i
CCOC(=O)c1ccc(NC(=O)Nc2ccc(S(N)(=O)=O)cc2)cc1,0.1%
O=C(CSc1nnc(-c2cccnc2)o1)c1ccc2ccccc2c1,i
CC(C)N1C(=O)C(O)(CC(=O)c2ccc(Br)s2)c2ccccc21 (stereo unspecified),i
CC1=NNC(=O)C(CC(=O)Nc2ccc(I)cc2)C1 (stereo unspecified),i
CCc1nc2ccccc2n1CC(O)COc1ccccc1Cl (stereo unspecified),8.6%
Nc1ncnc(Nc2c(F)cccc2F)c1[N+](=O)[O-],i
COc1cc([N+](=O)[O-])ccc1NC(=S)NCc1cn(-c2ccccc2)nc1-c1ccccc1,i
O=C(c1cn(CC(=O)N2CCCC2)c2ccccc12)C1CC1,i
COc1ccc(CNC(=O)CN(Cc2ccc(F)cc2)S(=O)(=O)c2ccc(Cl)cc2)cc1,i
COc1ccc(NC(=O)C(C)Sc2ccc(C)cc2)cc1Cl (stereo unspecified),i
Clc1ccc(OCCCn2cncn2)cc1Cl,i
Cc1ccc2c(c1)c(-c1ccccc1)c(-c1ccccc1)n2CC(O)CN1CCN(CCO)CC1 (stereo unspecified),1.84µg/mL*
CCC(=O)NC(=S)Nc1ccc(OC)c(Cl)c1,i
CN(c1ccccc1C(=O)Nc1ccc(CC#N)cc1)S(=O)(=O)c1ccccc1,i
CC1CCN(S(=O)(=O)c2ccc(C(=O)NCc3ccc4c(c3)OCO4)cc2)CC1,i
C=CCn1c(SCC(=O)Nc2nc(-c3ccccc3)cs2)nnc1-c1ccc(C)cc1,i
COc1cccc(C(=O)Nc2sc3c(c2C(=O)NCC2CCCO2)CCC3)c1 (stereo unspecified),i
CCCOc1cccc(C2C3=C(CC(C)(C)CC3=O)NC3=C2C(=O)CC(C)(C)C3)c1,i
COc1cccc(C(=O)Nc2ccc(NC(=O)c3ccccc3)cc2)c1,i
Clc1cccc(Cl)c1CSc1nnnn1-c1ccccc1,i
O=C(CSC1=NCCS1)N1CCN(c2ccc(Cl)cc2)CC1,i
COc1cccc(NC(=O)CN(C)S(=O)(=O)c2ccc3ccccc3c2)c1,i
COc1ccc(C(=O)Nc2ccccc2COC(=O)c2ccc(OC)c(OC)c2)cc1OC,i
Cn1cnc2c(=S)[nH]c(=O)n(Cc3ccccc3)c21,i
O=C(NCc1cccnc1)c1cc(S(=O)(=O)N2CCCC2)c(Cl)cc1Cl,i
CCCCc1ccc(NC(=O)CN(C)S(=O)(=O)c2ccccc2)cc1,24.2%
COc1ccc(-c2cc(-c3cccs3)nc(SC(C(=O)O)c3ccccc3)c2C#N)cc1 (stereo unspecified),i
CS(=O)(=O)N1CCN(C(=S)Nc2ccccc2C(F)(F)F)CC1,0.4%
Fc1ccc(Nc2ncnc3ccccc23)cc1Cl,0.8%
O=c1c2cccc3c2c(nn1CCN1CCCCC1)-c1ccccc1-3,2.84µg/mL*
CCc1cc2c(=O)n(Cc3ccco3)c(SCC(=O)NC3CCCCC3)nc2s1,0.4%
N/C(=N\S(=O)(=O)c1ccc(F)cc1)c1ccccc1,i
CC(=O)c1ccc(NC(=O)C23CC4CC(C2)CC(C(=O)Nc2ccc(C(C)=O)cc2)(C4)C3)cc1,i
COc1cccc(NC(=O)CSC2=C(C#N)C(c3ccco3)C(C(=O)Nc3ccccc3F)=C(C)N2)c1 (stereo unspecified),i
COC(=O)c1c(NC(=O)CSCc2ccc([N+](=O)[O-])cc2)sc2c1CCCC2,i
COc1ccc(C(=O)COc2ccccc2C(C)=O)cc1Br,6.5%
CCc1ccccc1NC(=O)CSc1nnc(COc2c(C)cccc2C)o1,i
Cc1c(-c2ccc(OCc3ccccc3)cc2)nc2ccccc2c1C(=O)O,i
COC(=O)c1cccc(NC(=O)c2cc(OC)c(OC)c(OC)c2)c1,i
O=C(CC1C(=O)NCCN1C(=O)c1ccccc1)Nc1cccc(Cl)c1 (stereo unspecified),i
CCC(=O)Nc1ccccc1C(=O)OCC(=O)c1ccccc1,2.2%
Cc1ccc(OCCOc2cccc3ccc(C)nc23)c(Cl)c1,7.1%
CCc1ccc(CCC(=O)Nc2ccc(C(=O)O)cc2)o1,i
COc1ccc(S(=O)(=O)Nc2ccc(-c3cn4ccsc4n3)cc2)cc1,i
Cc1ccc(OCCCN2CC(C)CC(C)C2)c([N+](=O)[O-])c1 (stereo unspecified),i

Looked up by compound from the list above, 4 records:
Molecule,Mtb H37Rv
COc1ccc(S(=O)(=O)Nc2ccc(-c3cn4ccsc4n3)cc2)cc1,i
O=C(CC1C(=O)NCCN1C(=O)c1ccccc1)Nc1cccc(Cl)c1 (stereo unspecified),i
COc1cccc(NC(=O)CSC2=C(C#N)C(c3ccco3)C(C(=O)Nc3ccccc3F)=C(C)N2)c1 (stereo unspecified),i
CCc1ccccc1NC(=O)CSc1nnc(COc2c(C)cccc2C)o1,i

Later entries
Molecule,Mtb H37Rv
Cc1cccc(CC2CC(=O)N(c3ccc(OC(F)(F)F)cc3)C2=O)c1 (stereo unspecified),0.5%
COc1ccc([N+](=O)[O-])cc1NC(=O)Nc1cccc(Cl)c1,i
O=C(CSc1ccc(Br)cc1)Nc1ccccc1N1CCOCC1,4.2%
O=C(O)c1sc2ccccc2c1Cl,i
CC(=O)Nc1nc2ccc(S(=O)(=O)N3CCCCC3)cc2s1,i
COc1ccc(C(=O)NCCN2CCCC2)cc1,i
COc1ccc(N(CC(=O)Nc2ccccc2-c2ccccc2)S(C)(=O)=O)cc1OC,i
COc1ccc(-c2cc(-c3ccccc3)nc(SCC(=O)O)c2C#N)cc1,i
COc1cccc(C(=O)Oc2ccccc2-c2ccccc2)c1,0.0%
CC(NS(=O)(=O)c1ccc(Cl)cc1)C(=O)Nc1cccc(Br)c1 (stereo unspecified),8.0%
CC(=O)Nc1nnc(COc2ccc(C)cc2C)s1,i
CCOC(=O)c1ccc(NC(=O)c2cn(-c3ccccc3)nc2-c2cccc(OC)c2)cc1,i
Cc1ccc(S(=O)(=O)NC(=O)N(Cc2ccccc2)Cc2ccco2)cc1,i
CCC(C)(C)C1CCC(=O)C(C2(O)C(=O)N(C)c3ccccc32)C1 (stereo unspecified),i
COc1cc([N+](=O)[O-])ccc1NC(=O)Nc1nc2c(s1)CCCC2,1.4%
CCOC(=O)CN(c1c(C)cccc1C)S(C)(=O)=O,i
CCn1c(SCc2ccc(C#N)cc2)nnc1-c1ccncc1,2.1%
Brc1ccccc1Nc1ncnc2[nH]ncc12,i
COc1ccc(CCNC(=O)CCC2COc3ccccc3O2)cc1OC (stereo unspecified),i
COc1ccc(C)cc1S(=O)(=O)NCc1ccc(Cl)cc1Cl,i
CC(=O)Nc1ccccc1NC(=O)C(Cl)Cl,i
COc1cccc(NC(=S)N2CCN(c3ccccc3F)CC2)c1,i
CCOc1cc(-c2nc3sc4c(c3c(=O)[nH]2)CCCC4)cc([N+](=O)[O-])c1O,i
CCC(C)NCCOc1cc(C)cc(C(C)C)c1 (stereo unspecified),i
COc1ccc(C)cc1S(=O)(=O)Nc1cccc(C(C)=O)c1,i
CCc1ccc(CN2CCN(Cc3ccco3)CC2)cc1,i
CC(C)(C)CC(=O)Nc1ccc([N+](=O)[O-])cc1,i
CCCC(=O)Nc1ccc(C(=O)N2CCN(c3ccccc3F)CC2)cc1,i
O=C(Cc1ccccc1)Nc1ccc(N2CCOCC2)c(C(=O)O)c1,i
O=C(NC(=S)NC1CCCCC1)c1ccccc1I,i
Cc1cc(NCc2ccncc2)nc2ccccc12,i
COC(=O)c1cc(OC)c(OC)cc1NC(=S)N1CCN(C/C=C/c2ccccc2)CC1,2.0%
Cc1ccc(-c2[nH]c(=S)[nH]c(=O)c2C#N)cc1,i
Cc1ccc(CNC(=S)N2CCOCC2)cc1,i
COc1ccc(C(=O)N/C(=C\c2ccc(-c3cccc([N+](=O)[O-])c3)o2)C(=O)NCCN2CCOCC2)cc1,i
CCS(=O)(=O)c1ccc2nc(SCc3ccccc3Cl)oc2c1,i
CCCCOc1ccc(NC(=O)C(=O)NCCc2ccc(OC)c(OC)c2)cc1,i
COc1ccc(S(=O)(=O)NCCc2ccccc2)cc1I,i
O=c1cc(-c2ccc(F)cc2)c2c([nH]1)Oc1c(nc(-c3ccccc3)[nH]c1=O)O2,i
CCn1c(CNC(=O)c2ccc(Br)cc2)nnc1SCC(=O)Nc1ccccc1C(C)C,i
CC(C)c1ccc(NC(=O)C2CCN(S(=O)(=O)c3ccc(Br)cc3)CC2)cc1,i
CCCCN(CCCC)CCNC(=O)Nc1ccc(OCC)cc1,i
CN(C(=O)c1ccccc1)C1CCS(=O)(=O)C1 (stereo unspecified),i
COCCNc1nc2c(c(=O)n(C)c(=O)n2C)n1Cc1ccc(Cl)cc1Cl,i
C=CCn1c(SCC(=O)NCC2CCCO2)nc2sc(C)c(C)c2c1=O (stereo unspecified),i
CC(C)C(=O)Nc1ccc(-c2nc3cccnc3o2)cc1,i
O=C(Nc1cc(Br)ccc1O)c1cnn2cccnc12,i
Cc1ccc(C(C)(C)C)c(OCCNCCN)c1,i

Five entries from above, sorted by molecular weight, high to low.
Molecule,Mtb H37Rv
CCn1c(CNC(=O)c2ccc(Br)cc2)nnc1SCC(=O)Nc1ccccc1C(C)C,i
CCCCOc1ccc(NC(=O)C(=O)NCCc2ccc(OC)c(OC)c2)cc1,i
O=c1cc(-c2ccc(F)cc2)c2c([nH]1)Oc1c(nc(-c3ccccc3)[nH]c1=O)O2,i
CCCCN(CCCC)CCNC(=O)Nc1ccc(OCC)cc1,i
O=C(Nc1cc(Br)ccc1O)c1cnn2cccnc12,i

More entries follow.
Molecule,Mtb H37Rv
O=C(Cc1ccc(Cl)cc1)Nc1cccc2ncccc12,8.8%
O=C(Cn1nc(-c2ccccc2)c2ccccc2c1=O)N1CCOCC1,0.3%
O=C(NCc1cccnc1)C(=O)NC1CCCCC1,i
Cc1c(C(=O)O)oc2c1C(O)CCC2 (stereo unspecified),i
O=C(Nc1cccc(C(F)(F)F)c1)C1CCN(S(=O)(=O)c2ccc(F)cc2)CC1,i
O=C(OCC(F)(F)C(F)F)c1ccc2ccccc2c1,i
COc1cc2c(cc1NC(=O)c1nc3ncccn3n1)oc1ccccc12,i
CCCCC(=O)NNC(=O)CCC(=O)O,0.4%
COc1ccc(OC)c(N(CC(=O)Nc2ccc(F)cc2F)S(C)(=O)=O)c1,i
CCC1CCCCN1C(=O)c1cccc(NC(=O)C(C)C)c1 (stereo unspecified),i
COc1cc(C(=O)Oc2ccc3oc(=O)cc(C)c3c2)cc(OC)c1OC,i
COC(=O)C1(C)Cc2ccccc2C(=O)O1 (stereo unspecified),i
COc1ccccc1C(=O)n1c(C)nc2ccccc21,i
CCOC(=O)/C(C#N)=C\c1ccc(/C=C(\C#N)C(=O)OCC)cc1,i
CC12CCC(C(=O)NCCC3=CCCCC3)(CC1=O)C2(C)C (stereo unspecified),i
O=C(CCN1CCOCC1)Nc1ccc(Cl)cc1C(=O)c1ccccc1,i
CC(=O)c1ccccc1NS(=O)(=O)c1c(C)nn(-c2ccccc2)c1C,2.6%
O=C(NCc1ccc(C(=O)O)cc1)Nc1ccc(F)cc1F,2.3%
CSc1ccccc1NC(=O)CSc1nnnn1-c1ccccc1C,0.9%
COc1cccc(CN2CCN(C(=S)Nc3cc(OC)cc(OC)c3)CC2)c1,0.9%
CC(=O)c1ccc(NCCC(=O)c2ccco2)cc1,2.8µg/mL*
CC(C)NC(=O)c1ccc(-c2cccc(C(F)(F)F)c2)o1,i
CC(=O)Nc1c(C(=O)NC(C)C)cnn1-c1ccccc1,i
Cc1cc(C)n(-c2cc(N3CCN(S(=O)(=O)Cc4ccccc4)CC3)ccc2[N+](=O)[O-])n1,0.4%
Cc1ccc(/C=N/N=C2/NC(=O)C(CC(=O)Nc3ccccc3F)S2)o1 (stereo unspecified),i
COc1cc2[nH]c(=S)n(Cc3ccc4c(c3)OCO4)c(=O)c2cc1OC,i
CCOc1ccc(OCC(=O)N2CCOCC2)cc1,i
COc1ccc(NC(=S)N2CCN(c3cc(Cl)ccc3C)CC2)cc1OC,2.3%
COc1cccc(NS(=O)(=O)c2cc(OC)ccc2OC)c1,i
COc1ccc(Cc2nnc(NC(=O)c3c(-c4ccccc4)noc3C)s2)cc1,38.9%
CC1CCc2c(sc3nc4c5ccccc5c5nncn5n4c(=O)c23)C1 (stereo unspecified),i
CCn1c(SCC(=O)Nc2ccc(Cl)c(Cl)c2)nnc1-c1cc2cccc(OC)c2o1,i
Cc1cccc(-c2nc3cc(NC(=O)c4cccc([N+](=O)[O-])c4)ccc3o2)c1,i
S=C(NCc1cccs1)NC1CCCCC1,i
Cc1ccc(C(=O)N=Nc2c(O)[nH]c3ccc(C)cc23)cc1,i
CC(C)Cc1nnc(NS(=O)(=O)c2ccc([N+](=O)[O-])cc2)s1,i
COc1cc(NC(=S)NC(=O)c2ccco2)ccc1NC(=O)c1cc2ccccc2o1,i
CCc1cccc(OCCOCCN2CCOCC2)c1,i
CCc1cccc(CC)c1NC(=O)c1ccc(CSc2ccccc2)cc1,u
O=C(CCc1ccccc1)n1nc(-c2ccccc2)nc1NCc1ccco1,i
Cc1ccc(NS(=O)(=O)c2cccc(F)c2)cc1,i
COc1ccc(OC)c(-c2csc(NC(=O)C3CCC3)n2)c1,i
COC(=O)C1=C(C)NC(=O)NC1c1cccc(OCC(=O)Nc2cccc(C(F)(F)F)c2)c1 (stereo unspecified),1.0%

The list is partial; count on the stated rates, not on these rows.
